Screening results: PubChem BioAssay, National Center for Advancing Translational Sciences (NCATS)
NS1 function inh: qHTS Assay for Inhibitors of Influenza NS1 Protein Function | S. cerevisiae slowed by influenza A NS1, growth recovery by OD600 | Potency, µM (titrated, usually from 46.1 µM), for inactives: top-dose activity, positive = more growth | actives 0.4% (n = 270,000) | AID 2326, 2010; also: actives are rising curves; nearly all actives have a fitted effect of over 50% in size
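Recovery from NS1-induced slow growth read by OD600 in budding yeast switched to galactose assay medium (pH 6.0, -URA) at 1:100 dilution. Compound 23 nl per well; the matching strain lacking NS1 serves as control.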
StopGo reporter: High Throughput Screening for Foot and Mouth Disease Virus Antivirals; human cells with a luciferase reporter of 2A StopGo recoding; control for the full effect not named in the record; actives 1.2% (n = 410,000); AID 1159524, 2015; Potency, µM (doses to about 57.9 µM), for inactives: at the top dose signal change, negative = less light; active = well fitted falling curve with a large enough effect; inconclusive = small, poorly fitted or top-dose-only effect; inactive = no such curve, though single readings can be large or run the other way; tested in HEK293T cells; also: % is scaled to controls: 0 for no effect and ±100 for the full control effect; nearly all actives have a fitted effect of over 45% in size; luciferase light after 4 h
SARS PLpro yeast: qHTS of Yeast-based Assay for SARS-CoV PLP | Potency, µM (highest dose often 32.9 µM), for the others: at the top dose activity, positive = growth rescue | actives 0.19% (n = 330,000) | AID 485353, 2010 | S. cerevisiae expressing SARS-CoV PLpro, growth rescue; control for the full effect not named in the record; also: 0% is about no effect; nearly all actives have a fitted effect of over 55% in size; growth read by luminescence after 48 h
Cruzain inh Det: qHTS Assay for Promiscuous and Specific Inhibitors of Cruzain (with detergent); AID 1478, 2009; Potency, µM, for inactives: max response, negative = inhibition, actives largely listed as inhibitors; actives 0.43% (n = 200,000); purified cruzain, Z-FR-AMC fluorescence, 0.01% Triton; active = well fitted curve in the direction sought with a large enough effect; inconclusive = small, poorly fitted or top-dose-only effect, or another doubt; inactive = no such curve, though single readings can be large; an effect the other way counts as inactive or inconclusive;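 also: plate controls were neutral wells for no effect and buffer without enzyme for full effect; nearly all actives have a fitted effect of over 40% in size; top concentration of the series not given in the record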
Target sequence (P25779 123-467 limits assumed): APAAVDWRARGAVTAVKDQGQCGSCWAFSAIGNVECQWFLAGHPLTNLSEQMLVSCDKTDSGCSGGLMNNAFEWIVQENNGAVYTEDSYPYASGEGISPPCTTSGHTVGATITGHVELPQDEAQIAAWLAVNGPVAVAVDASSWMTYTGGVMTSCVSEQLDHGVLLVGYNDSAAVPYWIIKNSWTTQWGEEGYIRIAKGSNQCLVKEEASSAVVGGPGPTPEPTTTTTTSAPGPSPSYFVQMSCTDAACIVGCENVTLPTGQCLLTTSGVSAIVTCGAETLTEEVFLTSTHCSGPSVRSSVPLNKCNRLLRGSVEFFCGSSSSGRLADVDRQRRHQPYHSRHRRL
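Sodium acetate buffer (100 mM, pH 5.5) containing 5 mM DTT and 0.01% Triton X-100 hosted 1.5 nM cruzain and test compound for 15 min at room temperature. Cleavage of 2 uM Z-FR-AMC was then tracked by fluorescence.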
Cruzain noTriton: qHTS Assay for Promiscuous and Specific Inhibitors of Cruzain (without detergent); Potency, µM, inactives show max response, negative = inhibition, actives largely listed as inhibitors; AID 1476, 2009; actives 2.3% (n = 200,000); purified cruzain, Z-FR-AMC fluorescence, no detergent; Cruzipain (Trypanosoma cruzi), P25779; active = well fitted curve in the direction sought with a large enough effect; inconclusive = small, poorly fitted or top-dose-only effect, or another doubt; inactive = no such curve, though single readings can be large; an effect the other way counts as inactive or inconclusive;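 also: plate controls were enzyme without inhibitor for no effect and buffer without enzyme for full effect; nearly all actives have a fitted effect of over 40% in size; top concentration of the series not given in the record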
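Detergent-free condition (0.00005% Triton X-100) in acetate buffer pH 5.5 with DTT. 1.5 nM enzyme and compound were pre-mixed 15 min, then 2 uM Z-FR-AMC substrate added; reaction progress from fluorescence change between first and third reads (60 s).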
RE007 growth inh: qHTS Assay for Inhibitors of the HIV-1 protein Vpr; S. pombe RE007 Vpr strain, BacTiter-Glo ATP luminescence, 24 h; control for the full effect not named in the record; Potency, µM (titrated, usually from 92.2 µM), inactives show at the top dose activity change, negative = less growth; actives 0.21% (n = 360,000); AID 651644, 2012; active = well fitted falling curve with a large enough effect; inconclusive = small, poorly fitted or top-dose-only effect; inactive = no such curve, though single readings can be large or run the other way;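 also: % is scaled to controls: 0 for no effect and ±100 for the full control effect; nearly all actives have a fitted effect of over 50% in size; the assay follows cell death caused by Vpr and the record does not say whether a fall means rescue or toxicity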
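Fission yeast RE007 carrying one integrated HIV-1 vpr copy, seeded at OD 0.01 in PMG+AL medium with 23 nL pinned compound. Grown 24 h at 30 degrees; viability read by BacTiter-Glo luminescence after 5 min.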
Marburg entry inh: qHTS for inhibitors of binding or entry into cells for Marburg Virus; Potency, µM (top dose mostly 37.8 µM), inactives show at the top dose activity change, negative = inhibition, actives largely listed as inhibitors; Marburg virus pseudotyped entry inhibition, cell reporter; control for the full effect not named in the record; about a third of the inactives were read at about 46 µM; actives 1.8% (n = 300,000); active = well fitted inhibition curve with a large enough effect; inconclusive = small, poorly fitted or top-dose-only effect, or effect the other way; inactive = flat fitted curve, though single readings scatter; tested in HEK293 cells; about a fifth of its hits are not listed in these tables; also: % is scaled to controls: 0 for no effect and ±100 for the full control effect; luciferase read-out
LASV entry inh: qHTS for Inhibitors of binding or entry into cells for Lassa Virus; Lassa virus pseudotype entry inhibition, cell reporter; control for the full effect not named in the record; Potency, µM (doses to about 37.9 µM), for the others: at the top dose activity change, negative = inhibition, hits mostly inhibitors; actives 1.2% (n = 300,000); AID 540256, 2011; active means well fitted inhibition curve with a large enough effect; inconclusive means small, poorly fitted or top-dose-only effect, or effect the other way; inactive means flat fitted curve, though single readings scatter; tested in HEK293 cells; also: % is scaled to controls: 0 for no effect and ±100 for the full control effect; nearly all actives have a fitted effect of over 50% in size; luciferase read-out
Active calls of the source: *; ? = inconclusive; . = no result given; & = joins results of further samples; [ ] = remark or other dose. Unless noted, calls follow the shape of the dose curve; as a rule, active means well fitted rising curve with a large enough effect; inconclusive means small, poorly fitted or top-dose-only effect; inactive means no such curve, though single readings can be large or run the other way. Potency is read from the fitted curve at half-maximal effect.

Structure,NS1 function inh,StopGo reporter,SARS PLpro yeast,Cruzain inh Det,Cruzain noTriton,RE007 growth inh,Marburg entry inh,LASV entry inh
Cc1ccc(O)c(NC(=O)CSc2n[nH]c(C)c2[N+](=O)[O-])c1,.,-22%,3%,.,.,12%,?,-17%[46.1 µM]
Cc1nnc(NCCc2ccccc2)c2ccccc12,-6%,29%,-1%,.,.,-18%,?,23%[46.1 µM]
Cc1ccnc(NC(=O)CSc2ccc3c(c2)OCCO3)c1,.,9%,1%,.,.,-5%,0%,1%
Cc1ccccc1NC(=S)N(Cc1cccs1)C1CCCC1,1%,-21%,4%,.,.,-14%,-8%[46.1 µM],.
C=CCSc1nnc(C)n1-c1ccc(Cl)cc1,4%,.,-1%,2.4%,2%,0%,11%,3%
CCN(CCCNC(=O)COc1cc(=O)n(CC)c2ccccc12)Cc1ccccc1,6%,11%,5%,-0.6%,2%,-4%,?,-11%
COc1ccc(C(=O)OCC(=O)NCCCc2ccccc2)cc1OC,-8%,1%,16%,.,.,-4%,.,.
Cc1noc(NC(=O)c2ccc(F)cc2)c1C#N,-9%,-3%,3%,-0.8%,-10%,1%,-25%,12%
CCOc1ccccc1NC(=O)C1CCC(CNc2c(N3CCOCC3)c(=O)c2=O)CC1 (configuration not stated),2%,-5%,-5%,-1.4%,-1%,-1%,-5%&-5%,-12%
O=C(Nc1ccc2c(c1)CCC2)Nc1ccc(F)cc1F,-3%,55%[activator],-2%,.,.,3%,.,.
Cc1cc(C)nc(N2N=C(c3ccccc3)CC2=O)n1,16%,19%,1%,.,.,15%,?,29%[46.1 µM]
CCCCn1c(N)c(N(CCOC)C(=O)c2ccc(NC3CC3)c([N+](=O)[O-])c2)c(=O)[nH]c1=O,.,-6%,-2%,.,.,3%,0%,-5%[46.1 µM]
COC(=O)c1ccc(OCC2c3cc(OC)c(OC)cc3CCN2C(=O)c2ccc(F)cc2)cc1 (configuration not stated),.,?,.,13%,?,.,.,?
COc1ccc(C(=O)Nc2nnc(S(=O)(=O)Cc3ccccc3)s2)cc1,12%,8%,-2%,.,.,13%,-5%[46.1 µM],3%[46.1 µM]
O=C(CCN1C(=O)c2ccccc2C1=O)OCN1C(=O)c2ccccc2C1=O,-6%,0%,?,-0.6%,-9%,-12%,1%&1%,-1%
COc1ccc(C(=O)Nc2ccccc2C(=O)N/N=C/c2ccccn2)cc1OC,-7%,?,-5%,.,.,?,?,10µM*
CCOC(=O)c1ccccc1NC(=O)CSc1ccc(-c2ccccn2)nn1,-66%,7%,?,.,.,?,.,.
CCOc1ccc(N(CC(=O)Nc2nccs2)S(=O)(=O)c2c(C)noc2C)cc1,-69%,19%,0%,-13%,4%,3%,.,.
CCOc1ccc(S(=O)(=O)N2CCCCC2)cc1NC(=O)C1=COCCO1,.,14%,8%,.,.,26%,-21%,?
Cn1cc(CN2CCC(n3nccc3NC(=O)C3CCCC3)CC2)cn1,-3%,-8%,-4%,.,.,-7%,?,-6%
Cc1ccc(CNC(=O)C(=O)NCCC2CCCCN2S(=O)(=O)c2ccccc2)cc1 (configuration not stated),.,-22%,8%,.,.,-9%,-24%,-29%
CCOc1cc(NC(=O)c2cccs2)c(OCC)cc1NC(=O)CCC(=O)NCC1CCCO1 (configuration not stated),.,-13%,1%,.,.,-4%,3%[46.1 µM],2%
O=C(Nc1ccc(F)cc1F)N1CCN(c2ncccn2)CC1,-6%,3%,-2%,-3.1%,2%,-11%,.,.
O=C(NCCCN1CCOCC1)c1cc(-c2ccc(F)cc2)no1,0%,-1%,2%,.,.,-12%,14%[46.1 µM],17%[46.1 µM]
Ic1ccccc1CNC1C2CCN(CC2)C1C(c1ccccc1)c1ccccc1 (configuration not stated),-8%,.,.,-1.4%,6%,.,4.6µM*,6.5µM*
CCC(=O)NC(=S)Nc1cccc(NC(=O)c2ccco2)c1,-1%,-10%,-1%,.,.,4%,3%[46.1 µM],-20%
CCc1cc2c(SCC(=O)NCC3CCCO3)ncnc2s1 (configuration not stated),.,-11%,-9%,.,.,2%,?,16%
Nc1ccccc1Nc1cc(-c2ccccc2)nn1-c1ccccc1,27%,24%,10%,-12%,0%,-25%,-5%,0%
COc1ccc(/C=N/N=C2/NC(=O)C(CC(=O)O)S2)cc1OCc1ccccc1Cl (configuration not stated),4%,-13%,11%,-17%,29%,27%,-26%,-13%
Cc1cc(C)c(C)c(OCCOCCN2CCN(C)CC2)c1,?,-15%,26%,-0.5%,5%,3%,?,-27%
CCn1c(=O)c2sccc2n2c(CCCC(=O)NCCc3ccc(S(N)(=O)=O)cc3)nnc12,-10%,-5%,-4%,.,.,5%,-14%[46.1 µM],?
COc1cccc(CN2C(=O)CCC2(C)C(=O)NC2CCCCC2)c1 (configuration not stated),-10%,4%,14%,0.2%,-3%,-1%,3%,-10%
O=C1c2cccc3cc([N+](=O)[O-])cc(c23)C(=O)N1/N=C/c1ccc(O)cc1O,-31%,?,-7%,.,.,-5%,-17%[46.1 µM],?
S=C(c1cn(Cc2ccc(Br)cc2)c2ccccc12)N1CCOCC1,18%,-26%,?,-2.9%,?,17%,?,?
Cc1ccc(C)c(NC(=O)CS(=O)(=O)c2c[nH]c3ccccc23)c1,-4%,1%,1%,-3.6%,2%,-16%,5%,4%
Cc1ccccc1CNC(=O)C1CCC(=O)N(C2CC2)C1 (configuration not stated),10%,-6%,-2%,.,.,-7%,-1%[46.1 µM],29%[46.1 µM]
C[C@]12CCC(=O)C=C1CC[C@@H]1[C@@H]2CC[C@@]2(C)[C@H]1CC[C@]2(C)O,.,?,-12%,-1.7%&1.9%,-2%&5%,-6%,.,.
O=C(NC1CCCCC1)N1CCc2[nH]c3ccccc3c2C1,-21%,-6%,-2%,-5.3%,-7%,-6%,0%,?
O=C(Oc1ccc(OC(=O)C2CCC2)cc1)C1CCC1,-4%,-14%,-17%,-0.6%,3%,2%,-13%,-9%
N#Cc1sc(NCc2ccccc2)nc1Cl,.,47%[activator],-1%,.,.,-2%,?,?
O=C(NC1CCCC1)C(c1ccncc1)N(C(=O)Cc1cccs1)c1cccc(F)c1 (configuration not stated),1%,-6%,-2%,.,.,-1%,5%[46.1 µM],-18%[46.1 µM]
CC(C)CCNC(=O)COC(=O)/C=C/c1ccc2ccccc2n1,7%,-6%,1%,.,.,3%,-11%,-4%
NC(=O)CN1C(=O)NC2(CCOc3ccccc32)C1=O (configuration not stated),5%,-11%,-1%,.,.,-10%,0%[46.1 µM],22%
COc1ccc(CNC(=S)Nc2cccc(C)c2C)cc1,-10%,1%,?,0.8%,4%,-5%,0%,6%
O=C(Nc1ccc(Br)cc1)C1CC(O)CN1C(=O)OCc1ccccc1 (configuration not stated),2%,9%,0%,.,.,11%,6%[46.1 µM],1%
CC(=O)/C(=N\Nc1ccc(Cl)cc1Cl)Sc1nnc(-c2ccccc2)n1-c1ccccc1,-8%,-17%,30%,-1.4%,-9%,-5%,26%,-2%
COc1ccccc1CN(C)C(=O)c1ccc(S(=O)(=O)Nc2c(C)n(C)n(-c3ccccc3)c2=O)cc1,.,-9%,-5%,.,.,-5%,2%[46.1 µM],?
COc1ccc(-c2cnc(C)o2)cc1S(=O)(=O)Nc1ccc(F)cc1F,.,97%[activator],.,-5.5%,-17%,.,.,5%[46.1 µM]
COc1ccc(CNC(=S)Nc2ccccc2F)cc1,28%,28%,12%,.,.,-15%,.,.
O/C=c1\ccc2cccc3nc(C(F)(F)F)nc1c23,1%,13µM*,0%,.,.,-11%,?,-3%
CCOC(=O)C1CCCN(C(=O)c2ccc3ncsc3c2)C1 (configuration not stated),.,-9%,-1%,.,.,11%,-1%,0%
COc1ccc(NC(=O)CN2C(=O)COc3ccc(S(=O)(=O)N4CCOCC4)cc32)cc1,13%,3%&-9%,7%,1.9%,4%,2%,.,12%[46.1 µM]
COc1ccccc1C(=O)Nc1ccc(-c2nnn(CC(=O)NCc3ccco3)n2)cc1,-54%,7%,-1%,.,.,2%,.,.
Cc1ccc(NC(=O)CN2C(=O)S/C(=C\c3ccc(-c4cccc(C(=O)O)c4C)o3)C2=O)cc1,0%,.,18%,-28%,?,.,3%,.
COc1ccc(NC(=O)c2ccc(CN3CCc4ccccc4C3)cc2)cc1OC,8%,-29%,3%,.,.,8%,.,.
O=C(CSc1ccc(-c2ccc(-n3cccn3)cc2)nn1)Nc1ccccc1F,.,-5%,.,.,.,0%,-10%,-21%
Cc1cc(C2C(C#N)=C(N)OC3=C2C(=O)CC(C)(C)C3)c(C)s1 (configuration not stated),19%,?,-3%,-0.8%,-4%,19%,?,-7%
O=C(N/N=C/c1ccc(O)cc1O)c1ccc(NC(=O)C2CCCCC2)cc1,-18%,?,3%,.,.,6%,.,.
Nc1nonc1-n1nnc(C(=O)N/N=C/c2cccc(F)c2)c1-c1ccc2c(c1)OCO2,-5%,-8%,3%,.,.,-5%,-27%[46.1 µM],17%[46.1 µM]
COC(=O)c1ccc(NS(=O)(=O)c2ccc3c(c2)oc(=O)n3C)cc1,3%,7%,1%,-3.2%,0%,1%,.,.
Cc1cc(C)cc(NC(=O)CCNS(=O)(=O)c2ccc3c(c2)oc(=O)n3C)c1,-3%,12%,8%,1.7%,2%,-1%,11%,-2%
